PKD1 kinase inh: inhibitors of human PKD1 kinase | hit rate 0.056% among 200,000 | PKD1 kinase fluorescence polarization assay | AID 797 | Q15139 | inhibition, %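 (about 10 µM by stock and volumes)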;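 active = inhibition of 50% or more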;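 also: controls were vehicle for no effect and a reference inhibitor for full effect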
RGS16-Gao: modulates binding between human RGS16 and Galphao | O15492+P09471 | bead-based flow cytometry RGS16-Galphao binding, fluorescence; actives lie on both sides | binding response (% of control), % at 10 µM | hit rate 0.38% among 220,000 | AID 1441;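 active = below 25% or above 175%, edge rows of some plates excepted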;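 also: Galphao activated by GDP with aluminum fluoride before binding; 100% = wells without compound and 0% = beads without RGS; some results beyond the cut were filed as inactive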
Target sequence (O15492 whole entry, looked up): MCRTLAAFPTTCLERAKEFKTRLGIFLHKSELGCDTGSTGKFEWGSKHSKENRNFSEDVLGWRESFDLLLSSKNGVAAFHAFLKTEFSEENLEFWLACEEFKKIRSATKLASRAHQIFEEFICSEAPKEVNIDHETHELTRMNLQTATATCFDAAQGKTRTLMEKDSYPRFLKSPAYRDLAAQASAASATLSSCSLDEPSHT
Target sequence (P09471 whole entry, looked up): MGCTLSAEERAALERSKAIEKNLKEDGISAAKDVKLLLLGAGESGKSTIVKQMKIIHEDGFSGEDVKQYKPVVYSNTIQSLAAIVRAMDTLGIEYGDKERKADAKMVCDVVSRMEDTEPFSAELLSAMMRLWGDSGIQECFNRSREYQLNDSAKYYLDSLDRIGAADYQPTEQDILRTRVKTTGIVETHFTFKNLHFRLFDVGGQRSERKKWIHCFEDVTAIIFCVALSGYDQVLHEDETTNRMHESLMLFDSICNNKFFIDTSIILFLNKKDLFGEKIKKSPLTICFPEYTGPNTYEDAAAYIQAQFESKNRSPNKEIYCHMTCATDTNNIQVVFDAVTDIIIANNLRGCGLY
GALR2 agonist: GALR2 (human) receptor agonism; GALR2-expressing cells, agonist activation read-out; O43603; hit rate 0.48% among 140,000; activation, %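 (tested at 5 µM)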;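 active = above mean plus 3 SD of all compounds, about 5% in these data, not always enough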;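 also: 0% = vehicle buffer wells and 100% = reference agonist at full effect; tested in CHO reporter cells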
Target sequence (O43603 whole entry, looked up): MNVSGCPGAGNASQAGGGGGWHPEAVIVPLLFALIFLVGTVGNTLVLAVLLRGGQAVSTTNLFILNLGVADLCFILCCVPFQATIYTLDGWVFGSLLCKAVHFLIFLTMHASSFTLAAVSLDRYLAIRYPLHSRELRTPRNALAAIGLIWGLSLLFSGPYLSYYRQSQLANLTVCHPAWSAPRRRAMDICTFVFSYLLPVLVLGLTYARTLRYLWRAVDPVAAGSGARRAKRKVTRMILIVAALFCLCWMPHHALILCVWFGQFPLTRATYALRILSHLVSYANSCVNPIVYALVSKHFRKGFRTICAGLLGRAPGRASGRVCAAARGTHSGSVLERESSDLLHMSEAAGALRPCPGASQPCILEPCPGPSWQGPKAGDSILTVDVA
HSV augment: increases HSV replication in cells | HSV replication augmentation in cells, fold increase | maximum fold increase | hit rate 0.005% among 220,000;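 active = peak rise of 1.5-fold or more in the series; tested in PC3 cells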;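 also: first round at 10 µM; read as green reporter fluorescence; hits show the peak of a series up to 25 µM; 1 = signal of infected wells without compound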
INS promoter inh: TRM-6 insulin promoter activity inhibition. inhibition, % at 2 µM. TRM-6 cells (human fetal islet line), insulin promoter-eGFP reporter, imaging; reporter expression induced with tamoxifen. hit rate 0.9% among 130,000;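 active = inhibition above the mean plus 3 SD, with well images judged a real hit on visual review, cut at about 60% in these data, passing the limit was not always enough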
INS promoter inh cell count: further read-out of INS promoter inh, marked with its call; normalized cell count, %; measured here: cell count, toxicity; reference of the scale not given here;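 cells exposed to compound for 48 h; stained nuclei by imaging scaled within each plate; lower means fewer cells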
HSV augment primary fold: also measured in HSV augment; calls as there; fold increase; compound at 10 µM; measured here: primary screen fold increase 10 uM; tested in PC3 cells;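 GFP signal in the first replicate; 1 = infected wells without compound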
The depositor's hits bear a star; i = inactive; / = no result given. Rows are unselected; overall some 1.3% were active at least once.

SMILES | PKD1 kinase inh | RGS16-Gao | GALR2 agonist | HSV augment | HSV augment primary fold | INS promoter inh | INS promoter inh cell count
COc1ccc(-c2c3c(=O)n(C)c(=O)n(C)c3cn2-c2ccc(O)cc2)cc1 | / | 103 | / | i | 0.89 | / | /
O=C(Cc1ccc(Cl)cc1)NNC(=S)NC(=O)c1cccs1 | / | 102 | / | i | 1.1 | / | /
O=C(Nc1ccccc1)c1ccc(=O)n(Cc2cccc(Cl)c2)c1 | 0 | 98 | / | i | 1.1 | / | /
O=C1NC(Cc2c[nH]c3ccccc23)C(=O)N1CCOc1ccc(F)cc1 (configuration not stated) | -1 | 101 | -3.9 | i | 0.84 | 16 | 97
CCSc1ncnc2c1sc1nc(-c3ccco3)c3c(c12)CC(C)(C)OC3 | 0 | 96 | -0.9 | / | / | -20 | 53
CCCSc1ccc2nc(NC(=O)OC)[nH]c2c1 | -2 | 29 | -0.4 | i | 0.53 | -376 | 5
CS(=O)(=O)c1ccc2nc(NC(=O)CN3CCN(Cc4ccccc4)CC3)sc2c1 | 11 | 107 | -3.1 | i | 1.2 | -4 | 183
Cc1ccc(S(=O)(=O)NC(=O)N2CCCC(C)(C)C2)cc1 | -7 | 100 | -0.9 | i | 0.86 | 31 | 114
CC(C)c1ccc(-c2nnc(N)s2)cc1 | -12 | 104 | -0.4 | i | 0.87 | -10 | 106
O=C(Nc1nc2ccccc2n1CCOc1ccccc1)c1ccco1 | -2 | 101 | -3.9 | i | 0.92 | / | /
O=C(O)/C=C\C(=O)Nc1ccccc1C#Cc1ccccc1 | 0 | -41 | -2.7 | i | 1.1 | 13 | 111
Nc1cc(Cl)ccc1C(=O)OCC(=O)NC(=O)NCc1ccccc1 | 1 | 107 | -0.7 | i | 0.98 | 30 | 92
Cc1nn(-c2ccc(Cl)cc2)c2[nH]c(=O)c(CNCc3ccc4c(c3)OCO4)cc12 | -4 | 100 | -0.7 | i | 1 | / | /
COCCn1c(SCC(=O)Nc2ccc3c(c2)OCCO3)nnc1-c1c[nH]c2ccccc12 | 0 | 105 | -1.8 | i | 0.94 | / | /
C=CCNc1nc(C(=O)OCC)nc2ccccc12 | -8 | 103 | / | i | 0.93 | / | /
O=C(CCCCn1c(=S)[nH]c2ccsc2c1=O)NCc1ccco1 | -1 | 94 | -2.6 | i | 0.98 | -43 | 76
COc1cc(C(=O)NC(=S)NNC(=O)c2cnccn2)cc(OC)c1OC | 4 | 101 | -0.2 | i | 0.96 | -40 | 108
COc1cccc(-c2nc(SCC(=O)Nc3nc(-c4ccccc4)c(C)s3)[nH]c(=O)c2C#N)c1 | -1 | 100 | / | i | 0.92 | 53 | 127
S=C(Nc1ccccc1)N1N=CCC1c1ccccc1 (configuration not stated) | -9 | 103 | -0.4 | i | 1.1 | 27 | 95
COc1cc(C2NCC(c3ccc(Cl)cc3Cl)c3c2[nH]c2ccccc32)cc(OC)c1OC (configuration not stated) | -7 | 110 | -1.1 | i | 0.84 | -52 | 105
Cc1nc2cccnc2nc1C | / | 101 | / | i | 0.9 | / | /
O=C(O)c1cc2nc3c(c(C(F)(F)F)n2n1)CCCC3 | -1 | 104 | / | i | 0.87 | 60 | 122
Cc1occc1C(=O)NNC(=O)Nc1ccc([N+](=O)[O-])cc1 | -1 | 100 | / | i | 1 | 67 | 92
CCC1(C)NC(=O)N(CC(=O)Nc2sc3c(c2C(N)=O)CCC3)C1=O (configuration not stated) | -3 | 1 | -0.5 | i | 0.85 | 9 | 104
CCC(C)NC(=O)c1ccccc1NC(=O)CN(c1ccc(OC)cc1)S(C)(=O)=O (configuration not stated) | 3 | 103 | 0.1 | i | 0.93 | -66 | 103
COc1ccc(NS(=O)(=O)c2ccc(O)c(NC(=O)c3cc4c(C)nn(-c5ccc(F)cc5)c4s3)c2)cc1 | -8 | 104 | 0.5 | / | / | / | /
O=C(/C=C/Nc1cccc(O)c1)c1ccccc1 | -10 | 105 | -2.3 | i | 1.1 | -22 | 111
O=C(c1cccs1)N1CCC(Cc2ccccc2)CC1 | -3 | 101 | -0.3 | i | 0.87 | -31 | 197
CN(C)C(=O)COC(=O)c1ccccc1Sc1ccccc1C#N | -8 | 102 | / | i | 1.1 | / | /
Cc1cc(C)n(CCNC(=O)c2cc(COc3c(F)cccc3F)on2)n1 | 4 | 101 | / | i | 0.86 | 19 | 112
CCCC(=O)NNc1c2ccccc2nc2ccccc12 | -14 | 100 | -0.3 | i | 0.86 | / | /
O=C(O)[C@H](CO)Nc1ncnc2sc3c(c12)CCC3 | -5 | 102 | -0.1 | / | / | -18 | 131
COc1cccc(-n2cnc3sc4c(c3c2=O)CCC4)c1 | -8 | 104 | / | i | 0.93 | / | /
CN(C)S(=O)(=O)c1cccc(COC(=O)c2ccc3c(c2)OCO3)c1 | 1 | 32 | / | i | 1.1 | -21 | 119
Cc1ccc(C)c(SCC(=O)NC(=O)Nc2ccc3c(c2)OCCO3)c1 | -1 | 105 | -1.8 | i | 0.95 | 80* | 74*
CN(CC(=O)Nc1nc2ccc(F)cc2s1)S(=O)(=O)c1ccc(Cl)cc1 | -1 | 99 | -2.5 | / | / | 32 | 106
Cc1ccc(N/C=C/C(=O)c2cccs2)cc1 | -3 | 96 | / | i | 0.97 | / | /
C=CCn1cnc2c(nnn2Cc2ccc(F)cc2)c1=O | / | 92 | / | i | 0.73 | / | /
Cc1ccc(NC(=O)c2ccc(NS(=O)(=O)c3c(C)noc3C)cc2)cc1C | -6 | 102 | -1.0 | i | 0.66 | 25 | 118
COCC(N)(c1ccccc1)c1nc2ccccc2n1C (configuration not stated) | 5 | 107 | -1.9 | i | 0.9 | -24 | 37

Whole records, looked up by structure:
O=C(O)/C=C\C(=O)Nc1ccccc1C#Cc1ccccc1 is entered as PKD1 kinase inh: 0; RGS16-Gao: -41; GALR2 agonist: -2.7; HSV augment: i; HSV augment primary fold: 1.1; INS promoter inh: 13; INS promoter inh cell count: 111
Cc1cc(C)n(CCNC(=O)c2cc(COc3c(F)cccc3F)on2)n1 is entered as PKD1 kinase inh: 4; RGS16-Gao: 101; GALR2 agonist: /; HSV augment: i; HSV augment primary fold: 0.86; INS promoter inh: 19; INS promoter inh cell count: 112

Just PKD1 kinase inh, GALR2 agonist and INS promoter inh cell count, for seven of the compounds above:
Structure | PKD1 kinase inh | GALR2 agonist | INS promoter inh cell count
Cc1ccc(N/C=C/C(=O)c2cccs2)cc1 | -3 | / | /
COCC(N)(c1ccccc1)c1nc2ccccc2n1C (configuration not stated) | 5 | -1.9 | 37
Cc1ccc(NC(=O)c2ccc(NS(=O)(=O)c3c(C)noc3C)cc2)cc1C | -6 | -1.0 | 118
COc1cccc(-n2cnc3sc4c(c3c2=O)CCC4)c1 | -8 | / | /
CN(CC(=O)Nc1nc2ccc(F)cc2s1)S(=O)(=O)c1ccc(Cl)cc1 | -1 | -2.5 | 106
Cc1cc(C)n(CCNC(=O)c2cc(COc3c(F)cccc3F)on2)n1 | 4 | / | 112
O=C(O)c1cc2nc3c(c(C(F)(F)F)n2n1)CCCC3 | -1 | / | 122

Next section
SMILES | PKD1 kinase inh | RGS16-Gao | GALR2 agonist | HSV augment | HSV augment primary fold | INS promoter inh | INS promoter inh cell count
COc1ccccc1Nc1ncc(C(=O)N2CCC(C(N)=O)CC2)c2ccccc12 | -5 | 98 | -0.7 | i | 0.98 | 0 | 115
Cc1ccc(S(=O)(=O)Nc2nc3ccccc3nc2NCC2CCCO2)cc1 (configuration not stated) | / | 96 | / | i | 0.81 | / | /
O=C(CCCCC(=O)NCc1cccs1)NCc1cccs1 | 3 | 103 | -1.5 | i | 0.96 | -35 | 135
N#C/C(=C\c1ccc(-c2ccccc2Cl)o1)C(=O)Nc1nc2ccccc2s1 | -2 | 102 | -0.2 | i | 1.1 | 6 | 111
COc1cc(NC(=O)c2ccc(Cl)cc2Cl)ccc1-c1cc2ccccc2oc1=O | -3 | 93 | 13* | i | 0.89 | 12 | 119
Cc1ccc(S(=O)(=O)Nn2cnnc2)cc1 | / | 103 | / | i | 1.1 | / | /
O=C(NCc1ccc2c(c1)OCO2)C(=O)NC1CCCCC1 | 2 | 120 | -1.0 | i | 1.1 | 41 | 125
CC1CCN(c2nc(-c3cccnc3)nc3scc(-c4ccccc4)c23)CC1 | -9 | 105 | 0.4 | i | 1.2 | -118 | 100
COc1ccc(CNC(=O)C(CCSC)NC(=O)c2ccco2)cc1 (configuration not stated) | -8 | 102 | -1.0 | i | 0.72 | 23 | 98
Cc1nn2c(NCCOCCO)c3c(nc2c1-c1ccccc1)CCC3 | / | 100 | / | i | 0.91 | / | /
O=C(c1ccc2c(=O)n(-c3ccccc3)c(=S)[nH]c2c1)N1CCCCC1 | -4 | 97 | / | i | 0.94 | / | /
O=C(NCc1ccco1)C1CC(c2ccccc2C(F)(F)F)=NO1 (configuration not stated) | / | 93 | / | i | 0.84 | / | /
Brc1ccc(-c2n(-c3ccccn3)c3ccccc3[n+]2-c2ccccn2)cc1 | / | 102 | / | i | 1 | / | /
COc1ccc(/C=C/c2nc(-c3ccccc3O)n[nH]2)cc1 | 5 | 102 | -1.8 | i | 0.86 | -20 | 105
O=C(CC(=O)NC1CCCCC1)N/N=C/c1ccccc1F | -7 | 102 | / | i | 1 | / | /
CC(Cl)C(=O)NC(=O)NC12CC3CC(CC(C3)C1)C2 (configuration not stated) | -4 | 102 | -1.5 | i | 0.98 | / | /
O=C(Nc1nncs1)c1ccccc1Br | 8 | 99 | -2.6 | i | 0.93 | 29 | 158
CCOC(=O)c1c(C)nc2cc(C)ccn12 | -5 | 98 | -2.3 | i | 0.92 | / | /
Cc1ccc2nc3sc(C(=O)N4CCOCC4)c(N)c3cc2c1 | -5 | 100 | -0.5 | i | 1 | 34 | 104
O=C1CC(N2CCN(c3ccc(C(=O)c4ccc(F)cc4)cc3)CC2)C(=O)N1 (configuration not stated) | -8 | 102 | -1.3 | i | 0.94 | / | /
O=C(COC(=O)c1c2c(nc3ccccc13)/C(=C/c1ccco1)CC2)NC1CCCC1 | -6 | 88 | 1.5 | i | 1.1 | -49 | 92
COc1ccc(C2NC(=O)c3sc(=S)n(-c4ccccc4)c3N2)cc1 (configuration not stated) | -3 | 85 | -2.5 | i | 0.95 | 7 | 77
COc1ccc2[nH]c(=O)c(CN(Cc3cccs3)Cc3nnnn3Cc3ccccc3)cc2c1 | -13 | 85 | 1.2 | i | 0.83 | 0 | 139
O=C(NNC(=O)C1CCN(Cc2ccc(Cl)c(Cl)c2)CC1)c1cccs1 | -11 | 94 | / | i | 0.91 | -9 | 102
CC(C)c1nnc(NC(=O)c2cccc(NC(=O)C(F)(F)F)c2)s1 | -2 | 95 | / | i | 0.97 | / | /
COc1ccccc1/C=C/C(=O)Nc1ccc(N2CCOCC2)cc1 | -4 | 110 | / | i | 0.84 | -95 | 118
CCn1ncc([N+](=O)[O-])c1C(=O)n1nc(C)cc1C | 2 | 122 | 0.4 | i | 0.94 | -12 | 124
CC(=O)N1CCN(Cc2ccc(Br)s2)CC1 | 20 | 101 | -2.3 | i | 0.76 | 22 | 98
Cc1nn(C(=O)c2ccco2)c(C)c1Sc1ccc(Cl)cc1 | -2 | 104 | 3.7 | i | 0.84 | / | /
O=C(Nc1ccc(-c2nc3cccnc3s2)cc1)c1ccc(Cl)nc1 | / | 103 | / | i | 0.95 | / | /
CCOC(=O)N1CCN(C(=S)NC)CC1 | -4 | 100 | -0.9 | i | 0.95 | 72* | 33*
COc1ccc(C2C3=C(N=C4SCC(=O)N42)c2ccccc2CC3)cc1 (configuration not stated) | -2 | 101 | -2.9 | i | 1 | 71* | 90*
CCc1[nH]nc2c1C(Cc1ccccc1)C(C#N)=C(N)O2 (configuration not stated) | 1 | 104 | -0.8 | i | 0.81 | 0 | 121
Cc1nn(CC(=O)N2CCOCC2)c(C)c1[N+](=O)[O-] | -2 | 105 | -2.4 | i | 0.88 | / | /
CC(=O)c1ccc(Sc2ccc(C(C)=O)cc2)cc1 | -7 | 107 | -2.1 | i | 0.92 | / | /
O=c1c2sccc2nc(SCc2cc(=O)n3cc(Cl)ccc3n2)n1Cc1ccccn1 | -3 | 100 | / | i | 0.86 | -62 | 62
CC(=O)NC(C)C12CC3CC(CC(C(=O)O)(C3)C1)C2 (configuration not stated) | 0 | 77 | -1.6 | i | 0.96 | -10 | 114
CCc1ccc(Cn2nnc(C(=O)Nc3ccc(OC)cc3OC)c2N)cc1 | 0 | 98 | -0.1 | i | 0.76 | / | /
Cc1c(NC(=O)CSc2nnc(-c3ccco3)n2-c2ccccc2)c(=O)n(-c2ccccc2)n1C | -34 | 114 | -3.6 | i | 0.91 | -53 | 101
CC(=O)c1nnn(-c2ccc(F)cc2F)c1C | / | 102 | / | i | 1 | / | /
COc1cc(C(=O)OCCc2c(C)nc3nc[nH]n3c2=O)cc(OC)c1OC | -5 | 111 | / | i | 1 | -9 | 94

Screens from PubChem BioAssay.
